From PubChem
Vaccinia mCherry: qHTS for Stage-Specific Inhibitors of Vaccinia Orthopoxvirus: mCherry Reporter Primary qHTS. 310,000 tested, 0.63% active. Vaccinia virus mCherry reporter infection, fluorescence; about a quarter of the inactives have no number. Potency, µM (top dose mostly 36.5 µM), for inactives: top-dose activity change, negative = inhibition, hits mostly inhibitors; active = well fitted inhibition curve with a large enough effect; inconclusive = small, poorly fitted or top-dose-only effect; inactive = no such curve, though single readings can be large or run the other way; tested in A549 cells; further: nearly all actives have a fitted effect of over 35% in size; inactives centre near -10
VACV Venus inh: qHTS for Stage-Specific Inhibitors of Vaccinia Orthopoxvirus: Venus Reporter Primary qHTS; Vaccinia virus Venus reporter expression, fluorescence; Potency, µM (series often up to 36.5 µM), inactives show at the highest dose activity change, negative = inhibition, most hits filed as inhibitors; 330,000 tested, 0.46% active; active means well fitted inhibition curve with a large enough effect; inconclusive means small, poorly fitted or top-dose-only effect; inactive means no such curve, though single readings can be large or run the other way; tested in A549 cells; further: nearly all actives have a fitted effect of over 30% in size; inactives centre near -10
An asterisk follows results filed as active; i = inactive; ? = inconclusive; · = not tested or not shown; & = joins results of further samples; [ ] = remark or other dose. On the % scale 0 is the no-effect control and ±100 the full control effect; potency means the concentration at half of the fitted maximal effect.

smiles	Vaccinia mCherry	VACV Venus inh
O=C(Cc1ccc(Cl)cc1)N/N=C1\CCCc2ccccc21	-23.3%	-1.8%
Cn1ncc(Cl)c1C(=O)NNC(=O)Nc1cccc2ccccc12	-29.0%	-1.5%
COc1ccc(CNC(=O)/C=C/c2ccc(S(=O)(=O)NCc3ccco3)cc2)cc1OC	-18.9%	-22.4%
Cc1ccc(/C=C/C(=O)N2CC(=O)Nc3ccccc32)o1	-0.4%	-4.1%
Cc1ccsc1C(=O)Nc1ccc(F)c([N+](=O)[O-])c1	-13.0%	-8.0%
Cn1nc(C(F)(F)F)cc1-c1ccc(/C=C(\C#N)C(=O)c2ccccc2)s1	-0.6%	-0.6%
O=C(Nc1ccc(Oc2cccnc2)cc1)C1CCN(Cc2ccc(F)cc2)CC1	-15.1%	?
O=C(NC(=S)N1CC1)c1ccccc1	i	-14.6%
CCOCCCNC(=S)Nc1ccc2nc(N3CCN(CC)CC3)cc(C)c2c1	-27.3%	-28.0%
CCOCCCNC(=O)CN1C(=O)c2cccnc2Sc2ccccc21	0.7%	-12.1%
CCn1c(COc2ccc(=O)n(-c3ccccc3)n2)nnc1SC	-1.0%	-9.4%
O=C(c1ccc(CS(=O)Cc2ccc(Cl)cc2)o1)N1CCN(c2ccccn2)CC1 (configuration not stated)	-19.7%	-13.3%
O=C(Nc1ccc(S(=O)(=O)N2CCCC2)cc1)c1cc(=O)c2ccccc2o1	-10.5%[7.34 µM]	-4.3%[7.34 µM]
Cc1ccc(-c2nc(CS(=O)(=O)CC(=O)NCCCN3CCN(C)CC3)c(C)o2)cc1	?	-14.8%
Cc1ccc(CNC(=O)CNS(=O)(=O)c2ccc3nc(C)sc3c2)cc1	-0.7%	-17.3%
CCc1ccc2oc(C(=O)Nc3cc(C)ccc3C)cc(=O)c2c1	-10.1%	-0.6%
CCc1cc(Cn2nc(-c3ccccc3)cc2C(=O)NCc2cccc(Br)c2)on1	-7.4%	-23.2%
CCOc1ccc(CCNC(=O)C2CCC(=O)N2CCc2ccccc2)cc1OCC (configuration not stated)	i	-13.2%
O=C(NCCC(=O)N1CCCC(C(F)(F)F)C1)c1ccccc1Cl (configuration not stated)	-15.9%	-13.3%
COCCOC(=O)C1=C(C)NC(=O)NC1c1ccc(OC(=O)c2ccco2)c(OC)c1 (configuration not stated)	-0.5%	0.2%
O=C(COC(=O)Cc1ccccc1F)Nc1ccc2c(c1)OCCO2	i	3.2%
CC(=O)N1C(C(=O)O)CSC1c1cccc(C)c1 (configuration not stated)	·	5.3%
CN1CCc2cc3c(cc2C1O)OCO3 (configuration not stated)	-1.2%	-2.3%
Cc1ccc(CN2C(=O)SC(Nc3ccc(Cl)cc3)C2=O)cc1 (configuration not stated)	-15.0%	-7.9%
CCCCN1C(=O)C(NC(C)=O)c2cc(Br)ccc21 (configuration not stated)	-11.1%	-13.7%
O=C(Nc1cccc(OC(F)(F)F)c1)C1Cc2c(-c3ccc(Cl)cc3)ccnc2O1 (configuration not stated)	2.5%	-12.4%
COc1cc(C(=O)Nc2ccc(Cl)c(-c3nc4ncccc4o3)c2)cc(OC)c1OC	-19.6%	-2.8%
CCOC(=O)NNc1ccc(C(F)(F)F)cn1	i[7.34 µM]	0.8%[7.34 µM]
CC1(C)Oc2ccc(C(=O)Nc3ccccc3F)cc2N(CC(=O)N2CCOCC2)C1=O	-1.8%	3.6%
COc1ccc(C2C(C#N)=C(N)Oc3c2ccc2cccnc32)cc1OC (configuration not stated)	8.91µM*	?
COc1cccc2oc3cc(C#Cc4ccccn4)ccc3c(=O)c12	-20.3%	-16.0%
CC(C)NC(=O)NC(=O)CSc1ccc(S(=O)(=O)N2CCCC2)cn1	i	-4.0%

Single records (already shown):
Profile of `CC(C)NC(=O)NC(=O)CSc1ccc(S(=O)(=O)N2CCCC2)cn1` = Vaccinia mCherry: i; VACV Venus inh: -4.0%
Profile of `COc1ccc(C2C(C#N)=C(N)Oc3c2ccc2cccnc32)cc1OC` (configuration not stated) = Vaccinia mCherry: 8.91µM*; VACV Venus inh: ?
Profile of `COc1cc(C(=O)Nc2ccc(Cl)c(-c3nc4ncccc4o3)c2)cc(OC)c1OC` = Vaccinia mCherry: -19.6%; VACV Venus inh: -2.8%

Next section.
smiles	Vaccinia mCherry	VACV Venus inh
O=C(COc1cccc(Cl)c1Cl)Nc1ccc2c(c1)CCC2	-11.6%	7.0%
CCOc1cc(C)c(C(C)C)cc1S(=O)(=O)n1ccnc1CC	-9.5%	-13.6%
Cc1c(-n2c(O)c(C3=c4ccccc4=NC3=O)sc2=S)c(=O)n(-c2ccccc2)n1C	3.1%	-0.3%
Nc1nc(Nc2ccccc2)sc1C(=O)c1ccccc1	?	28.2µM*
CC1CCCN(C(=S)Nc2ccc(F)cc2)C1 (configuration not stated)	-10.5%	-3.7%
CCOc1ccccc1NC(=O)CCn1cccc1	-11.8%	-16.3%
Cc1cc(C)c2c(c1)/C(=N/NS(=O)(=O)c1ccc(Br)cc1)CCC2	-20.6%	-21.6%
CC(C)(C)c1ccc(C(=O)N/C(=C\c2ccco2)C(=O)Nc2ccccc2C(=O)O)cc1	i	-0.9%
O=C(NCCc1ccccc1F)C1CCCN(c2nc3ccccc3s2)C1 (configuration not stated)	6.4%	-15.8%
CCOC(=O)C1C(C)=CC(=O)CC1c1ccco1 (configuration not stated)	-14.7%[1.46 µM]	-12.9%
Cc1c(C(=O)NCCc2cccnc2)cnn1-c1ncc2c(n1)-c1ccccc1CC2	?	-25.2%
CCOC(=O)N1CCc2c(sc3c2c(=O)n(-c2ccc(CC)cc2)c(=O)n3CC(=O)c2ccccc2)C1	-17.2%	-14.3%
CC(=O)Nc1cccc(NC(=O)C2CC(=O)N(CCc3ccc(F)cc3)C2)c1 (configuration not stated)	10.1%	14.1%
COc1ccc(OC)c(/C=N/NC(=O)CC(=O)NC2CCCCC2)c1	i	-10.1%
CCOc1ccc(CNC(=O)C2CCN(C(=O)c3sccc3-n3cccc3)CC2)cc1	-9.3%	-6.1%
O=c1c2ccccc2sn1-c1ccc(Cl)cc1Cl	-0.9%	-28.2%
O=C(NCC(=O)N(c1ccc2c(c1)OCO2)C(C(=O)NC1CCCC1)c1ccncc1)c1ccco1 (configuration not stated)	-11.9%	-3.8%
CC1=C(C(=O)OCc2ccc(C)cc2)C(c2ccc(O)c([N+](=O)[O-])c2)NC(=O)N1 (configuration not stated)	i	3.1%
CC(C)C(Nc1ncnc2c1oc1ccccc12)C(=O)O (configuration not stated)	2.5%	-2.7%
Cc1nnc(SCC(=O)Nc2ccc(C(N)=O)cc2)n1-c1ccccc1	-3.5%	3.4%
S=C(NCC1CCCO1)Nc1ccccc1Cl (configuration not stated)	i	-2.4%
COc1ccc(CNC(=O)CCc2nnc3n(C)c(=O)c4sccc4n23)cc1	-2.9%	-12.3%
CC1(C)Oc2ccc3ccc(=O)oc3c2-c2cn[nH]c21	·	?
OCCOCCn1c(C(CO)Nc2nc(-c3cccc(Br)c3)cs2)nc2ccccc21 (configuration not stated)	?	?
Cc1cc(OCC(=O)Nc2ccc3oc(=O)ccc3c2)ccc1Cl	10.7%	-3.1%
CCc1nnc(NS(=O)(=O)c2ccc(N=Cc3c(C)[nH]n(-c4cccc(Cl)c4)c3=O)cc2)s1	-14.9%	-18.7%
COc1cc(OC)cc(C(=O)NCc2n[nH]c(=S)n2-c2ccccc2OC)c1	-14.2%	-13.5%
CCCC(N)CCCCCC(=O)O (configuration not stated)	-11.1%	3.3%
CC(=O)Nc1ccc2nc(-c3ccccc3)cn2c1	-11.3%	-9.8%
CC(=O)N1CCOc2ccc(S(=O)(=O)N3CCC(C(=O)Nc4ccc(F)cc4)CC3)cc21	-10.7%	-4.2%
COc1cccc(C(=O)NCCS(=O)(=O)N2CC(C)CC(C)C2)c1 (configuration not stated)	-24.9%	-17.7%
CCCc1c(NC(=O)Nc2ccc(Cl)cc2Cl)cnn1-c1ccccc1	?	-8.1%

Part of the list above in another layout.
Value order – Vaccinia mCherry	VACV Venus inh
- CCc1nnc(NS(=O)(=O)c2ccc(N=Cc3c(C)[nH]n(-c4cccc(Cl)c4)c3=O)cc2)s1
→ -14.9%	-18.7%
- COc1cc(OC)cc(C(=O)NCc2n[nH]c(=S)n2-c2ccccc2OC)c1
→ -14.2%	-13.5%
- CCCC(N)CCCCCC(=O)O (configuration not stated)
→ -11.1%	3.3%

New compounds follow:
smiles	Vaccinia mCherry	VACV Venus inh
Fc1ccc(/C=N/Nc2ccccn2)cc1	-22.3%	-23.2%
COc1ccc(NC(=O)C(=O)NCC(=O)Nc2cc(OC)ccc2OC)cc1	i	-6.8%
C/C=C1/CN2C3CC1C(CO)(C(=O)OC)C2Cc1c3n(C)c2ccccc12 (configuration not stated)	7.9%	1.9%
CC1(NC(=O)c2cccc(S(=O)(=O)N3CCN(c4ccccc4)CC3)c2)CCS(=O)(=O)C1 (configuration not stated)	-14.8%	-16.0%
O=C(Nc1ccccc1)C1=C[C@@H](c2csc3ccccc23)C[C@@H](OCc2ccc(CO)cc2)O1	-15.2%	?
COc1ccc(S(=O)(=O)N(C)C)cc1NC(=O)COC(=O)c1n[nH]c2ccccc12	-28.2%	-13.5%
CC(C)c1ccc(Nc2nc3c(S(=O)(=O)c4ccc(Br)cc4)nnn3c3ccsc23)cc1	-20.5%	-15.2%
CSCCC(NC(=O)c1ccccc1)C(=O)N1CCN(C(c2ccccc2)c2ccccc2)CC1 (configuration not stated)	?	?
CCOC(CN=c1nc(N(C)C)ss1)OCC	-21.5%	-2.6%
Cc1cccc(NC(=O)Cn2c(=O)n(Cc3ccc(C(=O)NCc4ccc5c(c4)OCO5)cc3)c(=O)c3ccccc32)c1	-17.3%	-12.0%
Cc1ccc(NC(=O)c2ccc(-n3cccn3)nc2)cc1	-10.1%	-9.7%
Cc1cccc(C2=NN(c3ccccc3)[C@H](CO)[C@H]2c2ccccc2)c1	i	-8.6%
CCOc1ccccc1NC(=O)CSc1nnc(CNC(=O)c2cc(OC)c(OC)c(OC)c2)o1	i	-14.6%
CC(C)NC(=O)C1(C)CSCC(=O)N1CCOc1ccccc1 (configuration not stated)	i	-0.3%
COc1cccc(/C=C/C(=O)c2c(O)cc(C)oc2=O)c1O	-23.9%	-10.6%
CCCc1nnc(NC(=O)CCC(=O)N2CCN(Cc3ccccc3)CC2)s1	-15.5%	-21.4%
COc1ccc(OCC(=O)Nc2ccc(N3CCN(C(=O)c4ccccc4)CC3)c(Cl)c2)cc1	?	?
O=C(CCCCCn1c(=S)[nH]c2ccc(N3CCOCC3)cc2c1=O)NCc1ccccc1	-26.3%	-10.7%
Cc1sc2nc(SCc3nc4ccccc4[nH]3)n(Cc3ccco3)c(=O)c2c1C	-14.2%	-16.1%
COc1ccc(C(=O)n2nc(-c3ccc(OC)cc3)nc2N)cc1	i	-14.5%
C=C(C)CN(CC)C(=O)CSc1ccc(S(=O)(=O)N2CCN(Cc3ccccc3)CC2)cn1	?	?
CC(NC(=O)c1ccco1)C(=O)OCC(=O)c1ccc(Cl)s1 (configuration not stated)	0.0%	-10.5%
Cc1nn(-c2cc(C(F)(F)F)ccc2Cl)c2nc(C(F)(F)F)[nH]c(=O)c12	i	-10.9%
Cc1ccccc1CSCc1nc(N)nc(Nc2ccccc2C)n1	-4.8%	-10.5%
CCOc1ccc(C(C(=O)NC2CCCC2)N(C(=O)c2snc(C(N)=O)c2N)C2CCCC2)cc1 (configuration not stated)	-14.3%	-10.6%
O=C(/C=C/NNC(=O)c1ccccc1)c1ccc([N+](=O)[O-])cc1	?	-19.5%
COc1cc2nc(Nc3ccc(F)cc3)nc(N)c2cc1OC	?	?
COc1ccc(NS(=O)(=O)c2coc(C(N)=O)c2)cc1Cl	1.1%	2.7%
Cc1ccc(S(=O)(=O)NC(=NC2CCCCC2)c2ccc(F)cc2)cc1	-16.5%	-14.0%
CC(=O)Nc1cccc(-n2cc3c(c2-c2ccccc2Cl)c(=O)n(C)c(=O)n3C)c1	-21.7%	-14.3%
CCN(c1ccccc1)S(=O)(=O)c1c(C)noc1C	-19.8%	-10.3%
O=C(COC(=O)c1cc([N+](=O)[O-])ccc1Cl)NCCc1ccccc1	i	-0.2%
O=C(CCCn1c(=O)c2ccccc2n(CC(=O)N2CCN(c3ccccc3)CC2)c1=O)NCc1ccco1	-12.2%	-1.2%
COc1ccc(C(CC(=O)Nc2ncccc2C)N2Cc3ccccc3C2=O)cc1OC (configuration not stated)	-15.4%&-8.1%	-5.3%&3.5%
CC(C)CC(=O)NC(=S)Nc1ccccc1C(=O)Nc1ccccc1	-12.2%	0.5%
O=C(CC1CC2CCC1C2)OCC(=O)c1c[nH]c2ccccc12 (configuration not stated)	i	-13.4%
CCCCOc1ccc(C(=O)NCCCC(=O)N2CCCCC2)cc1	-12.2%	0.0%
COc1ccc(C)cc1NCc1ccc([N+](=O)[O-])cc1	i	-4.5%
CS(=O)(=O)N(CC(=O)NCCSCc1ccccc1)c1ccc2c(c1)OCO2	-8.9%	-5.0%
